# Assay outcomes as filed in PubChem BioAssay.
# RE007 growth inh: less growth of the S. pombe RE007 Vpr strain; hit rate 0.21% among 360,000; AID 651644; S. pombe RE007 Vpr strain, BacTiter-Glo ATP luminescence, 24 h; control for the full effect not named in the record; Potency, µM (series often up to 92.2 µM), for the others: top-dose activity change, negative = less growth; active = well fitted falling curve with a large enough effect; inconclusive = small, poorly fitted or top-dose-only effect; inactive = no such curve, though single readings can be large or run the other way;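 note: % is set by controls: 0 for no effect and ±100 for the full control effect; nearly all actives have a fitted effect of over 50% in size; the assay follows cell death caused by Vpr and the record does not say whether a fall means rescue or toxicity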
#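 Fission yeast RE007 carrying one integrated HIV-1 vpr copy, seeded at OD 0.01 in PMG+AL medium with 23 nL pinned compound. Grown 24 h at 30 degrees; viability read by BacTiter-Glo luminescence after 5 min.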
# Marburg entry inh: inhibitors of Marburg virus binding or cell entry; Marburg virus pseudotyped entry inhibition, cell reporter; control for the full effect not named in the record; about a third of the inactives were read at about 46 µM; Potency, µM (highest dose often 37.8 µM), inactives show at the top dose activity change, negative = inhibition, actives largely listed as inhibitors; hit rate 1.8% among 300,000; active = well fitted inhibition curve with a large enough effect; inconclusive = small, poorly fitted or top-dose-only effect, or effect the other way; inactive = flat fitted curve, though single readings scatter; tested in HEK293 cells; about a fifth of its hits are not listed in these tables; note: % is set by controls: 0 for no effect and ±100 for the full control effect; luciferase read-out
# SARS PLP yeast: SARS-CoV PLP inhibition in yeast; S. cerevisiae expressing SARS-CoV PLpro, growth rescue; control for the full effect not named in the record; Potency, µM (highest dose often 32.9 µM), for the others: at the highest dose activity, positive = growth rescue; hit rate 0.19% among 330,000; AID 485353; active means well fitted rising curve with a large enough effect; inconclusive means small, poorly fitted or top-dose-only effect; inactive means no such curve, though single readings can be large or run the other way; note: 0% is about no effect; nearly all actives have a fitted effect of over 55% in size; growth read by luminescence after 48 h
# Lassa entry inh: blocks Lassa virus binding to or entry into cells; hit rate 1.2% among 300,000; Potency, µM (top dose mostly 37.9 µM), for inactives: top-dose activity change, negative = inhibition, most hits filed as inhibitors; Lassa virus pseudotype entry inhibition, cell reporter; control for the full effect not named in the record; active means well fitted inhibition curve with a large enough effect; inconclusive means small, poorly fitted or top-dose-only effect, or effect the other way; inactive means flat fitted curve, though single readings scatter; tested in HEK293 cells; note: % is set by controls: 0 for no effect and ±100 for the full control effect; nearly all actives have a fitted effect of over 50% in size; luciferase read-out
# Cruzain noTriton: blocks cruzain activity in detergent-free assay; P25779; purified cruzain, Z-FR-AMC fluorescence, no detergent; Potency, µM, inactives show max response, negative = inhibition, most hits filed as inhibitors; hit rate 2.3% among 200,000; AID 1476;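 note: plate controls were enzyme without inhibitor for no effect and buffer without enzyme for full effect; nearly all actives have a fitted effect of over 40% in size; top concentration of the series not given in the record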
# Target sequence (P25779 123-467 limits assumed): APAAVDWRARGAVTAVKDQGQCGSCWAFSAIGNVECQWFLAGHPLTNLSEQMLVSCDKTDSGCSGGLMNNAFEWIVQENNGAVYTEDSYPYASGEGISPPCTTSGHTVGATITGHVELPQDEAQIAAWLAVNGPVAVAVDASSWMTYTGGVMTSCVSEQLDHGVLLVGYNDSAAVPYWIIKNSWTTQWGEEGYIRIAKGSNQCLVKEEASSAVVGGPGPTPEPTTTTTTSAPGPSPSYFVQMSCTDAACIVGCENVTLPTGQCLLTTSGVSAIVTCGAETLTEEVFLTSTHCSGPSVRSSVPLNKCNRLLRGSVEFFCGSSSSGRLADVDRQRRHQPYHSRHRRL
#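 Purified cruzain at 1.5 nM, pre-incubated 15 min with compound at room temperature in 100 mM sodium acetate pH 5.5, 5 mM DTT, 0.00005% Triton X-100. Reaction started with 2 uM Z-FR-AMC; AMC fluorescence increase over 60 s gives rate.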
# NS1 function inh: influenza NS1 inhibition; S. cerevisiae slowed by influenza A NS1, growth recovery by OD600; Potency, µM (highest dose often 46.1 µM), for the others: top-dose activity, positive = more growth; hit rate 0.4% among 270,000; active means well fitted rising curve with a large enough effect; inconclusive means small, poorly fitted or top-dose-only effect; inactive means no such curve, though single readings can be large or run the other way; note: nearly all actives have a fitted effect of over 50% in size
#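 Growth recovery, yeast-based: influenza A NS1 expressed in S. cerevisiae causes slow growth, and suppressors are detected by OD600. The parent strain without NS1 is used as positive control.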
# Cruzain Triton: blocks cruzain activity in presence of Triton detergent; purified cruzain, Z-FR-AMC fluorescence, 0.01% Triton; P25779; hit rate 0.43% among 200,000; Potency, µM, without a hit: max response, negative = inhibition, usual class: inhibitors;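 note: plate controls were neutral wells for no effect and buffer without enzyme for full effect; nearly all actives have a fitted effect of over 40% in size; top concentration of the series not given in the record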
#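 Detergent-containing arm of a paired screen for aggregation-based inhibition: 0.01% Triton X-100 present. Cruzain at 1.5 nM cleaved 2 uM Z-FR-AMC at pH 5.5 with 5 mM DTT; AMC fluorescence gain over 60 s measured activity.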
# StopGo reporter: lowers the luciferase signal of an FMDV 2A StopGo reporter; human cells with a luciferase reporter of 2A StopGo recoding; control for the full effect not named in the record; Potency, µM (top dose mostly 57.9 µM), inactives show at the top dose signal change, negative = less light; hit rate 1.2% among 410,000; active = well fitted falling curve with a large enough effect; inconclusive = small, poorly fitted or top-dose-only effect; inactive = no such curve, though single readings can be large or run the other way; tested in HEK293T cells; note: % is set by controls: 0 for no effect and ±100 for the full control effect; nearly all actives have a fitted effect of over 45% in size; luciferase light after 4 h
# * marks the source's active call; other numbers are inactive results; ? = inconclusive; · = not tested or not shown; & = joins results of further samples; [ ] = dose if it differs, or a comment. Unless noted, calls come from the whole dose curve; as a rule, active = well fitted curve in the direction sought with a large enough effect; inconclusive = small, poorly fitted or top-dose-only effect, or another doubt; inactive = no such curve, though single readings can be large; an effect the other way counts as inactive or inconclusive. Potency is the fitted concentration of half-maximal effect.
SMILES,RE007 growth inh,Marburg entry inh,SARS PLP yeast,Lassa entry inh,Cruzain noTriton,NS1 function inh,Cruzain Triton,StopGo reporter
Cc1c(NC(=O)c2nn3c(C(F)(F)F)cc(-c4ccccc4)nc3c2Br)c(=O)n(-c2ccccc2)n1C,55%,-42%,21%,1%,?,3%,-3.6%,?
Cc1cc(C)c2nc(C(F)(F)F)nc(N3CC(C)OC(C)C3)c2c1 (stereo not drawn),·,·,·,·,29%,-39%,-7.3%,-20%
Cc1cccc(N2CCN(C(=O)NCc3noc4ccccc34)CC2)c1C,·,·,·,-14%[46.1 µM],-8%,·,-2.8%,26%
O=S(=O)(NCc1ccccc1)c1ccc(S(=O)(=O)N(Cc2cccs2)CC2CCCO2)cc1 (stereo not drawn),17%,2%,5%,-5%,-8%,-3%,0.0%,0%
Cc1cc(C(=O)N/N=C/c2cccc([N+](=O)[O-])c2)c(C)n1-c1ccccc1,-17%,?,8%,-1%,-25%,-1%,-5.0%,16%
c1nc2nc3c(c(N4CCNCC4)n2n1)CCCC3,-2%,·,1%,·,·,4%,·,-18%
CC(=O)N1CCCC1(C(=O)O)c1ccccc1 (stereo not drawn),-13%,16%[46.1 µM],0%,-1%,·,3%,·,-4%
ON=C1CCCCCCCC1,15%,-7%,·,-1%[46.1 µM],·,·,·,-27%
COc1ccc(/C=N/Nc2nc(=O)[nH]nc2C)cc1OC,-2%,·,-2%,?,·,3%,·,0%
Cc1c(CC(=O)NCCC(C)C)c(=O)oc2cc3c(cc12)CCC(C)(C)O3,7%,0%[46.1 µM],1%,-12%[46.1 µM],·,1%,·,-4%
O=C(Nc1ccccc1N1CCN(c2ccc(F)cc2)CC1)c1ccccc1,-3%,?,-5%,-11%,?,?,0.7%,?
O=c1cc(O)nc(SC23CC4CC(CC(C4)C2)C3)[nH]1,6%,10%,2%,-19%,?,-6%,1.3%,5%
Cc1cccc(N2CCN(C(=O)CCS(=O)(=O)c3ccc4c(c3)oc(=O)n4C)CC2)c1C,7%,-2%&-2%[46.1 µM],1%,?,?,-10%,-4.3%,?
CCC/C(=N\NC(=O)CNC(=O)/C=C/c1ccco1)c1ccccc1,-4%,2%,4%,9%,-13%,15%,0.7%,11%
CCN(CC)Cc1c[nH]c2c(C(=O)OC)cccc12,-4%,·,11%,·,-4%,0%,1.7%,-3%
COc1ccc(CCNC(=O)Cc2cccs2)cc1OC,5%,5%[46.1 µM],1%,-10%,·,-1%,·,-6%
COc1ccc(-c2nsc(NC(=O)COc3ccccc3OC)n2)cc1,·,18%[46.1 µM],·,?,-1%,·,0.1%,-3%
O=[N+]([O-])c1ncn(C23CC4CC(CC(C4)C2)C3)n1,0%,-4%,0%,15%,·,-4%,·,-19%
C=CCOC(=O)C1=C(C)NC(=O)NC1/C=C/c1ccccc1OC (stereo not drawn),17%,-12%,3%,-24%,-12%,7%,-0.7%,-8%
Cc1cccc(C)c1NC(=S)N/N=C/c1c(Cl)cccc1Cl,11%,18%[46.1 µM],0%,?,·,·,·,-11%

# The last four compounds of the part above are carried over, then new ones follow:
SMILES,RE007 growth inh,Marburg entry inh,SARS PLP yeast,Lassa entry inh,Cruzain noTriton,NS1 function inh,Cruzain Triton,StopGo reporter
COc1ccc(-c2nsc(NC(=O)COc3ccccc3OC)n2)cc1,·,18%[46.1 µM],·,?,-1%,·,0.1%,-3%
O=[N+]([O-])c1ncn(C23CC4CC(CC(C4)C2)C3)n1,0%,-4%,0%,15%,·,-4%,·,-19%
C=CCOC(=O)C1=C(C)NC(=O)NC1/C=C/c1ccccc1OC (stereo not drawn),17%,-12%,3%,-24%,-12%,7%,-0.7%,-8%
Cc1cccc(C)c1NC(=S)N/N=C/c1c(Cl)cccc1Cl,11%,18%[46.1 µM],0%,?,·,·,·,-11%
CCOC(=O)c1c(NC(=O)COC(=O)c2cccnc2OCC)sc(C(=O)N(CC)CC)c1C,-8%,?,0%,?,·,·,·,16µM*
O=C(O)c1cccnc1-c1ncccc1C(=O)O,7%,?,11%,2%,-3%,?,6.7%,3%
CN(C(=O)COC(=O)C1=COCCO1)C1(C#N)CCCCC1,-24%,?,0%,3%,·,·,·,11%
Cc1nn(C)c(C)c1NC(=O)c1ccc(Cl)cc1,3%,29%&29%[46.1 µM],3%,-14%,-3%,5%,5.5%,21%
COc1ccc(CCNC(=O)c2nnn(-c3cccc(C)c3)c2N)cc1OC,1%,-25%,2%,-1%,14%,7%,5.4%,?
CC1CC(C)CN(C(=O)c2ccc3c(c2NCCO)C(=O)c2ccccc2C3=O)C1 (stereo not drawn),-9%,10µM*,-10%,?,?,-1%,-8.1%,-21%
CCCCC(CC)Cn1c(Oc2ccccc2)nc2c1c(=O)n(C)c(=O)n2C (stereo not drawn),·,1%[46.1 µM],·,-16%[46.1 µM],?,·,-8.4%,-23%
CC12CCC3c4ccc(OCC(=O)O)cc4CCC3C1CCC2=O (stereo not drawn),24%,-4%,·,-1%,·,·,·,-14%
Cc1cc(OCC(=O)Nc2cccc(S(=O)(=O)NC3=NCCCCC3)c2)ccc1Cl,8%,-5%,29%,-1%,-1%,5%,-6.3%,?
Cc1cc(C(F)(F)F)nc(SCC(=O)NC2CC3CCC2C3)n1 (stereo not drawn),14%,2%,3%,19%,-1%,?,3.3%,-18%
COc1ccc(-c2cc3nc(C4CCN(C(=O)OC(C)(C)C)CC4)c(C(=O)Nc4cc(Cl)cc(Cl)c4)cn3n2)cc1,·,0%[46.1 µM],·,-16%[46.1 µM],-6%,·,-2.3%,-8%
O=C1c2cccc(OCC(=O)N3N=C(c4cccs4)CC3c3ccc(F)cc3)c2CCN1Cc1cccnc1 (stereo not drawn),-3%,?,2%,?,?,-30%,-7.9%,?
Cc1cc(C)cc(N(CC(=O)Nc2c(C)n(C)n(-c3ccccc3)c2=O)S(C)(=O)=O)c1,21%,4%,1%,-3%,0%,-16%,3.9%,4%
CCC1Oc2ccc(C)cc2N(CC(=O)NCc2ccccc2OC)C1=O (stereo not drawn),4%,6%,-2%,18%,-26%,-3%,4.3%,-12%
O=C(COc1ccc(F)cc1)Nc1ccc(C(=O)OCc2cc(=O)n3nc(C4CC4)sc3n2)cc1,·,·,·,4%[46.1 µM],-3%,·,2.0%,4%
CC(=O)OC[C@H]1O[C@@H](O/N=C/[C@@H](C)[C@H](OCc2ccccc2)C(C)C)[C@H](OC(C)=O)[C@@H](OC(C)=O)[C@@H]1OC(C)=O,·,23%,18%,?,?,-26%,-2.5%,·
Cc1cc(C)c(NC(=O)Cn2cc3c(n2)CCCC3)c(C)c1,-18%,·,-1%,·,-12%,-5%,0.0%,-8%
COc1ccc(C)cc1Nc1nc(N)c2cc(OC)c(OC)cc2n1,-2%,?,-1%,?,?,5%,30%,-27%&-22%
CCS(=O)(=O)Nc1ccc(C2=NN(C(=O)c3ccccc3)C(c3cccs3)C2)cc1 (stereo not drawn),4%,·,1%,·,·,2%,·,?
Cc1cccc(OCc2nnc(SCC(=O)Nc3ccc(N4CCOCC4)cc3)o2)c1,12%,?,0%,-13%[46.1 µM],·,3%,·,17%
OC(C#CCN1CCOCC1)(c1ccccc1)C1CCCCC1 (stereo not drawn),-6%,·,3%,11%,2%,-15%,0.7%,-20%
O=C(CCNC(=O)c1ccccc1Cl)Nc1cccc(S(=O)(=O)N2CCCCC2)c1,-18%,8%,-1%,-22%,·,·,·,7%
COc1cccc(-c2nc(C(N)=O)c3[nH]c(=O)n(-c4cccc(Cl)c4)c3n2)c1OC,-3%,·,1%,·,?,-70%,-6.3%,?
Cc1ccc(C)c(N2CCN(C(=O)C3CCCN(c4ncnc5c4nc4n5CCCCC4)C3)CC2)c1 (stereo not drawn),16%,·,-11%,·,·,-49%,·,?
O=C(NNC(=O)c1cc2ccccc2cc1O)Nc1ccccc1F,-1%,·,1%,·,·,?,·,3%
CCC(=O)c1ccc(N2CCN(C(=O)c3cc([N+](=O)[O-])ccc3N3CCN(C)CC3)CC2)c(F)c1,2%,?,?,-16%,-2%,5%,-7.7%,-17%
Cc1cccc(C)c1N(CC(=O)N1CCOCC1)S(C)(=O)=O,-9%,?,5%,8%,·,1%,·,-16%
Cc1ccc(C(=O)OCc2nnc(-c3ccc(Br)cc3)o2)cc1,-5%,?,-17%,-3%[46.1 µM],·,·,·,2%
CC(=O)OCc1c(C(F)(F)F)nn(C)c1Oc1ccccc1,6%,21%,3%,30%,-5%,8%,2.3%,6%
Cc1ccc(C)c(/C(O)=C2\C(=O)C(=O)N(CCCn3ccnc3)C2c2ccncc2)c1 (stereo not drawn),1%,21%,-5%,2%,1%,?,-7.2%,3%
O=C(Cc1ccccc1[N+](=O)[O-])N/N=C/c1cccnc1,18%,21%[46.1 µM],5%,-2%[46.1 µM],·,-1%,·,-4%
CCCCNC(=O)CC1Nc2ccccc2NC1=O (stereo not drawn),2%,-2%,2%,·,5%,-9%,-3.3%,-8%
CCCOc1ccc(S(=O)(=O)NCCN2CCOCC2)c2ccccc12,4%,?,-2%,-17%,-6%,-10%,-2.4%,19%
O=C(/C=C/c1cccc(F)c1)Nc1cc(S(=O)(=O)N2CCOCC2)ccc1N1CCCC1,-2%,-13%,0%,?,2%,28%,-1.9%,9%
CCn1c(Cc2ccccc2)nnc1SCc1ccc([N+](=O)[O-])cc1,1%,?,-14%,-2%[46.1 µM],9%,-5%,2.4%,17%
O=C(NCCN1CCOCC1)c1ccccc1N1C(=O)[C@@H]2Cc3c([nH]c4ccccc34)C(c3ccc(F)cc3)N2C1=O (stereo partly drawn),-14%,·,8%,·,·,-17%,·,-19%
O=C(Nc1ccccc1Cl)c1c(F)c(F)c(F)c(F)c1F,?,?,·,-18%,·,?,·,?
COc1ccc(N2CC(NS(=O)(=O)c3ccc(F)cc3)CC2=O)cc1 (stereo not drawn),5%,1%[46.1 µM],0%,2%,·,·,·,-8%
